# DUX4 txn inh: blocks DUX4-driven transcriptional activation; 293T-iDUX4 ZSCAN4-Gaussia luciferase reporter, 24 h; hits give low values; hit rate 0.8% among 37,000; activity change, negative = inhibition, % (test concentration not listed);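 active means -10% or lower and over 25 points stronger than a control reporter; inconclusive means -10% or lower with a smaller gap; inactive means above -10%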;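 further: 0% = median of neutral control wells and -100% = median of positive control wells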
# DUX4 txn inh difference: further read-out of DUX4 txn inh, marked with its call; Gaussia minus Italica difference, %; measured here: selective DUX4 reporter inhibition;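 worked out from the two reporters; negative = selective loss of the DUX4 reporter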
# DUX4 txn inh control: recorded beside DUX4 txn inh, whose call it bears; activity change, negative = inhibition, %; measured here: Italica tet-on control reporter;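 0 = neutral control and -100 = positive control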
# Active calls of the source: *; ? = inconclusive; . = not tested or not shown. These rows are one share of the data. The share of hits here may be higher or lower than overall.
# Values run as follows: DUX4 txn inh	DUX4 txn inh difference	DUX4 txn inh control
CN1C(=O)c2cc(NS(=O)(=O)CC(F)(F)F)ccc2OC[C@H]2O[C@@H](CC(=O)Nc3cccc(F)c3)CC[C@@H]21
 : -1	-1	-0.7
O=C(C[C@H]1C[C@@H]2c3cc(NS(=O)(=O)c4ccc(F)cc4)ccc3O[C@@H]2[C@H](CO)O1)N1CCc2ccccc2C1
 : -7	-2	-4.7
COc1ccc(NC(=O)Nc2ccc3c(c2)C(=O)N([C@H](C)CO)C[C@H](C)[C@@H](CN(C)S(=O)(=O)c2cccs2)OCCCC[C@H](C)O3)cc1
 : ?	.	.
CNC[C@H]1OCCCC[C@@H](C)Oc2ccc(NC(=O)c3ccncc3)cc2C(=O)N([C@@H](C)CO)C[C@@H]1C
 : 2	2	-0.3
COc1ccccc1CNC(=O)C[C@H]1C[C@@H]2c3cc(NC(=O)NC4CCCC4)ccc3O[C@@H]2[C@@H](CO)O1
 : -7	-9	1.4
O=C(Nc1ccccc1)[C@@H]1[C@@H](CO)[C@@H]2Cn3c(cccc3=O)[C@@H]2N1CC1CCOCC1
 : 14	11	2.7
CNC(=O)C[C@H]1CC[C@@H]2[C@H](COC[C@H](O)CN2Cc2ccc(Cl)c(Cl)c2)O1
 : -1	2	-2.2
CC(=O)NC[C@@H]1[C@@H](c2ccccc2)[C@@H](CO)N1C(=O)Cc1ccncc1
 : 1	-2	2.9
C[C@@H]1CN([C@H](C)CO)C(=O)CCCn2cc(nn2)CO[C@H]1CN(C)C(=O)CCCN(C)C
 : -1	0	-1.6
CCN1[C@@H]2Cn3c(ccc(C4=CCCCC4)c3=O)[C@H]1[C@@H](C(=O)NCCc1ccncc1)[C@@H]2CO
 : 2	5	-2.8
C[C@H]1CN([C@@H](C)CO)C(=O)CCCn2nncc2CO[C@@H]1CN(C)S(=O)(=O)c1ccc2ccccc2c1
 : 0	3	-3.0
CO[C@H]1CN(C)C(=O)c2cc(NC(=O)c3cnccn3)ccc2OC[C@@H](C)N(C)C[C@@H]1C
 : -1	-2	1.0
CCCNC(=O)C[C@H]1CC[C@@H]2[C@H](COc3ccc(NC(=O)c4cccs4)cc3C(=O)N2C)O1
 : 5	0	4.5
COc1cccc(CN(C)C[C@@H]2OCc3ccccc3-c3c(n(C)c4ccccc34)C(=O)N([C@@H](C)CO)C[C@H]2C)c1
 : 0	-4	3.9
C[C@H]1CN([C@@H](C)CO)C(=O)c2ccccc2-c2ccccc2CO[C@@H]1CN(C)C(=O)[C@H](Cc1ccccc1)N(C)C
 : -7	-7	0.0
N#C[C@@H]1[C@H](c2ccc(C3=CCCCC3)cc2)[C@H](CO)N1C(=O)c1ccccn1
 : -2	-1	-0.9
O=C(C[C@@H]1CC[C@@H]2[C@H](COC[C@H](O)CN2S(=O)(=O)c2cccc(F)c2)O1)NC1CCC1
 : 2	-2	4.2
COCC(=O)N1[C@@H](CO)[C@@H]2c3ccccc3N(C(=O)Nc3cc(F)ccc3F)C[C@@H]21
 : 0	0	-0.1
CCN(C[C@@H]1[C@@H](c2ccccc2)[C@@H](CO)N1S(C)(=O)=O)C(=O)C1CC1
 : -6	-6	-0.8
COc1ccc(S(=O)(=O)Nc2ccc3c(c2)OC[C@@H](C)N(Cc2cc(F)ccc2F)C[C@@H](C)[C@H](OC)CN(C)C3=O)cc1
 : ?	.	.
O=C(C[C@@H]1C[C@@H]2c3cc(NC(=O)Nc4ccccc4F)ccc3O[C@@H]2[C@@H](CO)O1)NCc1ccc(Oc2ccccc2)cc1
 : ?	.	.
C[C@H](CO)N1C[C@H](C)[C@@H](CN(C)Cc2ccc(Oc3ccccc3)cc2)OCc2ccccc2-c2ccccc2C1=O
 : ?	.	.
N#C[C@H]1[C@@H](c2ccccc2)[C@H](CO)N1S(=O)(=O)c1ccc(F)cc1
 : 4	5	-0.4
C[C@@H]1CN([C@@H](C)CO)C(=O)c2cc(-c3ccccc3)cnc2O[C@@H]1CN(C)C(=O)c1ccccn1
 : -1	-2	0.6
C[C@H](NC(=O)C[C@@H]1C=C[C@@H](NC(=O)c2cccnc2)[C@H](CO)O1)c1ccccc1
 : -2	-1	-0.5
Cc1noc(C)c1NC(=O)N(C)C[C@H]1OCCCC[C@@H](C)Oc2ccc(NC(=O)c3ccncc3)cc2C(=O)N([C@@H](C)CO)C[C@@H]1C
 : 1	2	-0.9
CN1CCN(C(=O)C[C@H]2C[C@H]3c4cc(NC(=O)C5CCC5)ccc4O[C@H]3[C@@H](CO)O2)CC1
 : -1	-7	6.2
CO[C@H]1CN(C)C(=O)c2ccc(NC(=O)Cc3ccccc3)cc2OC[C@@H](C)N(C(C)=O)C[C@@H]1C
 : -3	-2	-0.7
CCCNC(=O)N[C@@H]1CC[C@H](CCn2cc(C3CC3)nn2)O[C@H]1CO
 : 0	-5	5.6
CS(=O)(=O)N1CC(=O)N2[C@H](C1)[C@@H](c1ccc(Br)cc1)[C@@H]2CO
 : 4	4	-0.5
CS(=O)(=O)N1[C@H](CO)[C@@H](c2ccccc2)C12CN(Cc1ccccn1)C2
 : 17	0	17
C[C@@H]1CN([C@@H](C)CO)C(=O)CCCn2nncc2CO[C@@H]1CN(C)Cc1ccc(Cl)c(Cl)c1
 : ?	.	.
COc1ccccc1-c1ccc([C@H]2[C@@H](CO)N3CCCCN(C(=O)NC4CCCC4)C[C@H]23)cc1
 : -23*	-28*	4.6*
CO[C@H]1CN(C)C(=O)c2ccc(NC(=O)Nc3cccc(F)c3)cc2OC[C@H](C)N(C(=O)Nc2c(C)noc2C)C[C@H]1C
 : 4	3	0.8
Cc1ccc(-c2ccc([C@@H]3[C@H](CO)N4CCCCN(Cc5cncnc5)C[C@@H]34)cc2)cc1
 : 14	-5	19
COc1cccc(NC(=O)N(C)C[C@H]2Oc3ncc(C#Cc4cccnc4)cc3C(=O)N([C@H](C)CO)C[C@H]2C)c1
 : -1	-7	5.2
C[C@@H](NC(=O)C[C@H]1C[C@@H]2c3cc(NC(=O)c4ccc5c(c4)OCO5)ccc3O[C@@H]2[C@@H](CO)O1)c1ccccc1
 : ?	.	.
Cn1cnc(S(=O)(=O)N2CC[C@@H]3[C@@H](CO)Nc4ccc(-c5ccccc5)cc4[C@@H]32)c1
 : 11	-9	20
C[C@H]1CN([C@@H](C)CO)C(=O)c2ccccc2-c2ccccc2CO[C@H]1CN(C)C(=O)CCC(F)(F)F
 : -9	-6	-3.1
COc1ccc(S(=O)(=O)Nc2cccc3c2O[C@H](CN(C)CC2CCCCC2)[C@H](C)CN([C@H](C)CO)C3=O)cc1
 : 2	1	1.1
Cc1ccc(S(=O)(=O)Nc2cccc3c2O[C@H](CN(C)Cc2ccncc2)[C@H](C)CN([C@H](C)CO)C3=O)cc1
 : -3	-9	5.9
CCCNC(=O)Nc1ccc2c(c1)C(=O)N(C)C[C@@H](OC)[C@@H](C)CN(Cc1cccnc1)[C@@H](C)CO2
 : 0	-4	3.5
CC(=O)N1C[C@H]2[C@@H](c3ccccc31)[C@@H](CO)N2C(=O)Nc1ccc(F)cc1
 : 0	2	-1.5
COCC(=O)N1CC(=O)N2[C@@H](CO)[C@H](c3ccc(-c4ccccc4F)cc3)[C@@H]2C1
 : 18	-4	22
CC(=O)N1CC[C@@H]2[C@H](CO)Nc3ccc(-c4ccc(F)cc4)cc3[C@@H]21
 : 14	13	1.3
CCCNC(=O)C[C@H]1CC[C@@H]2[C@H](COc3ccc(NC(=O)c4ccc(Cl)cc4)cc3C(=O)N2C)O1
 : -2	-1	-0.8
CN1CCCCN2[C@H](CO)[C@@H](c3ccc(C#CC4(O)CCCC4)cc3)[C@H]2C1
 : ?	.	.
CC(=O)N1CC2(C1)[C@@H](c1ccccc1)[C@H](CO)N2Cc1cccc(Cl)c1
 : 4	-1	4.7
C[C@@H]1CN([C@@H](C)CO)S(=O)(=O)c2ccc(C#CC(C)(C)O)cc2O[C@H]1CN(C)Cc1ccc(F)cc1
 : ?	.	.
O=C(C[C@@H]1CC[C@H]2[C@@H](COC[C@H](O)CN2S(=O)(=O)c2ccc(F)cc2)O1)NCc1ccc(Cl)c(Cl)c1
 : ?	.	.
CN1[C@@H]2c3ccc(-c4cccnc4)c(=O)n3C[C@@H]2[C@@H](CO)[C@@H]1C(=O)NC1Cc2ccccc2C1
 : -2	4	-5.8
CCCNC(=O)Nc1ccc2c(c1)C(=O)N(C)C[C@H](OC)[C@H](C)CN[C@@H](C)CO2
 : 5	1	4.5
CN1CCN(C(=O)C[C@H]2CC[C@H]3[C@@H](COc4ccc(NC(=O)C5CCOCC5)cc4C(=O)N3C)O2)CC1
 : -4	-3	-0.8
CCCNC(=O)C[C@@H]1CC[C@H]2[C@H](COc3ccc(NC(=O)Cc4cccs4)cc3C(=O)N2C)O1
 : 1	-2	3.1
CCc1sc(N2[C@H](C#N)[C@H](c3ccccc3-c3cccc(F)c3)[C@H]2CO)nc1C
 : -2	1	-2.9
CO[C@@H]1CN(C)C(=O)c2ccc(NC(=O)C3CC3)cc2OC[C@@H](C)N(CCc2ccccc2)C[C@@H]1C
 : -6	-15	9.1
CCCNC(=O)N1C[C@@H](O)COC[C@@H]2O[C@H](CC(=O)NCc3ccc(Cl)c(Cl)c3)CC[C@H]21
 : 3	9	-6.0
COCC#Cc1ccc2c(c1)O[C@H](CN(C)S(=O)(=O)c1ccc(OC)cc1)[C@H](C)CN([C@H](C)CO)S2(=O)=O
 : 4	4	0.7
Cc1ccccc1S(=O)(=O)N1C[C@@H](O)COC[C@@H]2O[C@H](CC(=O)N3CCOCC3)CC[C@H]21
 : 10	0	10
CS(=O)(=O)N1[C@H](C#N)[C@@H](c2ccc(C#CC3CCCCC3)cc2)[C@@H]1CO
 : 0	-3	2.8

# More results follow.
# Values run as follows: DUX4 txn inh	DUX4 txn inh difference	DUX4 txn inh control
COc1ccc(C#Cc2ccc([C@@H]3[C@@H](CO)N4C(=O)CN(C(=O)c5ccncc5)C[C@H]34)cc2)cc1
 : -2	-1	-1.4
CNC(=O)C[C@@H]1CC[C@@H]2[C@H](COC[C@@H](O)CN2S(=O)(=O)c2ccccc2Cl)O1
 : 1	3	-1.5
COc1ccc2c3c(n(C)c2c1)[C@@H](CO)N(C(=O)c1ccccc1)CC31CCN(C(=O)c2ccccc2)CC1
 : ?	.	.
Cc1ccccc1S(=O)(=O)N1[C@H](C#N)[C@H](c2ccc(-c3ccc(F)cc3)cc2)[C@@H]1CO
 : 0	-1	0.5
O=S(=O)(N[C@@H]1CC[C@H](CCn2cc(Cc3ccccc3)nn2)O[C@@H]1CO)c1ccccc1F
 : 1	4	-2.9
CCC(=O)N1[C@H](C(=O)N(C)C)[C@@H](CO)[C@@H]2Cn3c(ccc(-c4ccccc4)c3=O)[C@@H]21
 : 4	2	2.5
C/C=C/c1ccc([C@H]2[C@@H](CO)N3C(=O)CN(C(=O)c4ccncc4)C[C@@H]23)cc1
 : 14	-1	16
CO[C@H]1CN(C)C(=O)c2ccc(NS(C)(=O)=O)cc2OC[C@@H](C)N(CC2CC2)C[C@@H]1C
 : -2	-3	1.1
CC(=O)N1[C@@H](CO)[C@@H]2c3ccccc3N(S(=O)(=O)c3ccc(F)cc3)C[C@@H]21
 : 2	5	-2.9
CCCNC(=O)Nc1ccc2c(c1)OC[C@H](C)N(Cc1cncnc1)C[C@H](C)[C@H](OC)CN(C)C2=O
 : 3	2	0.8
C/C=C/c1ccc([C@@H]2[C@@H](CO)N(C(=O)C3CCC3)C23CN(C(=O)NC(C)C)C3)cc1
 : 0	-8	8.6
CO[C@H](C(=O)N(C)C[C@@H]1OCc2ccccc2-c2c(n(C)c3ccccc23)C(=O)N([C@H](C)CO)C[C@H]1C)c1ccccc1
 : ?	.	.
C[C@@H]1CN([C@@H](C)CO)S(=O)(=O)c2ccc(C#CC3CCCCC3)cc2O[C@@H]1CN(C)Cc1cccnc1
 : -5	-5	0.2
C[C@H]1CN([C@@H](C)CO)C(=O)c2ccccc2-c2ccccc2CO[C@H]1CN(C)S(=O)(=O)c1cccc(C#N)c1
 : -4	-8	4.5
CCC(=O)N1CC(=O)N2[C@H](CO)[C@@H](c3ccc(-c4ccncc4)cc3)[C@H]2C1
 : 7	-1	7.6
COCC(=O)Nc1ccc2c(c1)OC[C@@H](C)N(C(=O)CC1CC1)C[C@@H](C)[C@@H](OC)CN(C)C2=O
 : -2	-2	-0.1
C/C=C/c1ccc([C@H]2[C@H](CO)N3C(=O)CN(C(=O)c4ccc(F)cc4)C[C@@H]23)cc1
 : 16	13	3.0
COC(=O)C[C@@H]1CC[C@H]2[C@H](COc3ccc(NC(=O)c4ccc(OC)cc4)cc3C(=O)N2C)O1
 : 2	0	1.4
O=C(C[C@H]1CC[C@@H]2[C@H](COC[C@@H](O)CN2Cc2ccncc2)O1)NCC1CC1
 : 13	8	4.7

# Random excerpt: 6 records from the list
# Values run as follows: DUX4 txn inh	DUX4 txn inh difference	DUX4 txn inh control
O=C(C[C@@H]1CC[C@@H]2[C@H](COC[C@H](O)CN2S(=O)(=O)c2cccc(F)c2)O1)NC1CCC1
 : 2	-2	4.2
CS(=O)(=O)N1[C@H](CO)[C@@H](c2ccccc2)C12CN(Cc1ccccn1)C2
 : 17	0	17
COc1ccc(S(=O)(=O)Nc2cccc3c2O[C@H](CN(C)CC2CCCCC2)[C@H](C)CN([C@H](C)CO)C3=O)cc1
 : 2	1	1.1
O=C(C[C@H]1CC[C@@H]2[C@H](COC[C@@H](O)CN2Cc2ccncc2)O1)NCC1CC1
 : 13	8	4.7
C[C@H]1CN([C@@H](C)CO)C(=O)c2ccccc2-c2ccccc2CO[C@H]1CN(C)S(=O)(=O)c1cccc(C#N)c1
 : -4	-8	4.5
CS(=O)(=O)N1CC(=O)N2[C@H](C1)[C@@H](c1ccc(Br)cc1)[C@@H]2CO
 : 4	4	-0.5

# Bioassay records deposited in PubChem by Broad Institute.
